# Cruzain noTriton: qHTS Assay for Promiscuous and Specific Inhibitors of Cruzain (without detergent); Potency, µM, for the others: max response, negative = inhibition, actives largely listed as inhibitors; Cruzipain (Trypanosoma cruzi), P25779; hit rate 2.3% among 200,000; purified cruzain, Z-FR-AMC fluorescence, no detergent;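 further: plate controls were enzyme without inhibitor for no effect and buffer without enzyme for full effect; nearly all actives have a fitted effect of over 40% in size; top concentration of the series not given in the record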
# Target sequence (P25779 123-467 limits assumed): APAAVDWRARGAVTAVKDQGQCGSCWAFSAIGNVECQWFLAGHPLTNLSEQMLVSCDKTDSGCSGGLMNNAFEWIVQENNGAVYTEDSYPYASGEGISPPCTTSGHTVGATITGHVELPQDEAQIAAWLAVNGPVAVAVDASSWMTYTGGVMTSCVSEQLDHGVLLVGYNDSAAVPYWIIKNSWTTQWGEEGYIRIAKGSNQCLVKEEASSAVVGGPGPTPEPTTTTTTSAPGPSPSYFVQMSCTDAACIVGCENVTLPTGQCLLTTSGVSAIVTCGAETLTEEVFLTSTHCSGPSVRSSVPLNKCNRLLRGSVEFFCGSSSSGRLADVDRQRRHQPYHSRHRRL
#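 Detergent-free condition (0.00005% Triton X-100) in acetate buffer pH 5.5 with DTT. 1.5 nM enzyme and compound were pre-mixed 15 min, then 2 uM Z-FR-AMC substrate added; reaction progress from fluorescence change between first and third reads (60 s).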
# 2A StopGo: High Throughput Screening for Foot and Mouth Disease Virus Antivirals. Potency, µM (doses to about 57.9 µM), for inactives: top-dose signal change, negative = less light. AID 1159524, 2015. hit rate 1.2% among 410,000. human cells with a luciferase reporter of 2A StopGo recoding; control for the full effect not named in the record; active = well fitted falling curve with a large enough effect; inconclusive = small, poorly fitted or top-dose-only effect; inactive = no such curve, though single readings can be large or run the other way; tested in HEK293T cells; further: on the % scale 0 is the no-effect control and ±100 the full control effect; nearly all actives have a fitted effect of over 45% in size; luciferase light after 4 h
# SARS PLpro yeast: qHTS of Yeast-based Assay for SARS-CoV PLP | hit rate 0.19% among 330,000 | Potency, µM (doses to about 32.9 µM), inactives show at the top dose activity, positive = growth rescue | S. cerevisiae expressing SARS-CoV PLpro, growth rescue; control for the full effect not named in the record | AID 485353, 2010; active means well fitted rising curve with a large enough effect; inconclusive means small, poorly fitted or top-dose-only effect; inactive means no such curve, though single readings can be large or run the other way; further: 0% is about no effect; nearly all actives have a fitted effect of over 55% in size; growth read by luminescence after 48 h
# Cruzain inh Det: qHTS Assay for Promiscuous and Specific Inhibitors of Cruzain (with detergent) | Cruzipain (Trypanosoma cruzi), P25779 | purified cruzain, Z-FR-AMC fluorescence, 0.01% Triton | Potency, µM, for the others: max response, negative = inhibition, usual class: inhibitors | hit rate 0.43% among 200,000 | AID 1478, 2009;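 further: plate controls were neutral wells for no effect and buffer without enzyme for full effect; nearly all actives have a fitted effect of over 40% in size; top concentration of the series not given in the record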
#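 Enzyme 1.5 nM, Z-FR-AMC 2 uM, NaOAc 100 mM pH 5.5, DTT 5 mM, Triton X-100 0.01%; 15 min RT compound preincubation; kinetic ex360/em450, 60 s delta.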
# RE007 growth inh: qHTS Assay for Inhibitors of the HIV-1 protein Vpr | AID 651644, 2012 | hit rate 0.21% among 360,000 | S. pombe RE007 Vpr strain, BacTiter-Glo ATP luminescence, 24 h; control for the full effect not named in the record | Potency, µM (titrated, usually from 92.2 µM), without a hit: at the highest dose activity change, negative = less growth; active = well fitted falling curve with a large enough effect; inconclusive = small, poorly fitted or top-dose-only effect; inactive = no such curve, though single readings can be large or run the other way;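 further: on the % scale 0 is the no-effect control and ±100 the full control effect; nearly all actives have a fitted effect of over 50% in size; the assay follows cell death caused by Vpr and the record does not say whether a fall means rescue or toxicity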
#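 Fission yeast strain RE007, carrying one chromosomally integrated HIV-1 vpr copy, was seeded at OD 0.01 in PMG+AL medium with 23 nL pinned compound. After 24 h at 30 °C and 99% humidity, viability was read by BacTiter-Glo luminescence.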
# NS1 function inh: qHTS Assay for Inhibitors of Influenza NS1 Protein Function; S. cerevisiae slowed by influenza A NS1, growth recovery by OD600; Potency, µM (top dose mostly 46.1 µM), for the others: at the top dose activity, positive = more growth; hit rate 0.4% among 270,000; active means well fitted rising curve with a large enough effect; inconclusive means small, poorly fitted or top-dose-only effect; inactive means no such curve, though single readings can be large or run the other way; further: nearly all actives have a fitted effect of over 50% in size
#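 S. cerevisiae expressing influenza A NS1, grown in glucose, washed, then diluted 1:100 into pH 6.0 -URA galactose medium with 23 nl compound. Growth recovery read as OD600; NS1-free strain serves as control.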
# Marburg entry inh: qHTS for inhibitors of binding or entry into cells for Marburg Virus | Potency, µM (top dose mostly 37.8 µM), inactives show at the top dose activity change, negative = inhibition, actives largely listed as inhibitors | AID 540276, 2011 | Marburg virus pseudotyped entry inhibition, cell reporter; control for the full effect not named in the record; about a third of the inactives were read at about 46 µM | hit rate 1.8% among 300,000; active = well fitted inhibition curve with a large enough effect; inconclusive = small, poorly fitted or top-dose-only effect, or effect the other way; inactive = flat fitted curve, though single readings scatter; tested in HEK293 cells; about a fifth of its hits are not listed in these tables; further: on the % scale 0 is the no-effect control and ±100 the full control effect; luciferase read-out
# Lassa entry inh: qHTS for Inhibitors of binding or entry into cells for Lassa Virus; Lassa virus pseudotype entry inhibition, cell reporter; control for the full effect not named in the record; Potency, µM (top dose mostly 37.9 µM), inactives show top-dose activity change, negative = inhibition, hits mostly inhibitors; hit rate 1.2% among 300,000; active means well fitted inhibition curve with a large enough effect; inconclusive means small, poorly fitted or top-dose-only effect, or effect the other way; inactive means flat fitted curve, though single readings scatter; tested in HEK293 cells; further: on the % scale 0 is the no-effect control and ±100 the full control effect; nearly all actives have a fitted effect of over 50% in size; luciferase read-out
# Active calls of the source: *; ? = inconclusive; · = no result given; & = joins results of further samples; [ ] = remark or other dose. Unless noted, the call rests on the fitted dose curve; in most records, active means well fitted curve in the direction sought with a large enough effect; inconclusive means small, poorly fitted or top-dose-only effect, or another doubt; inactive means no such curve, though single readings can be large; an effect the other way counts as inactive or inconclusive. Potency means the concentration at half of the fitted maximal effect.
SMILES,Cruzain noTriton,2A StopGo,SARS PLpro yeast,Cruzain inh Det,RE007 growth inh,NS1 function inh,Marburg entry inh,Lassa entry inh
CC(C)(C)C(=O)OC1=CN(Cc2ccccc2)S(=O)(=O)c2ccccc21,9.2%,42.6%[activator],·,-6.1%,·,·,17.4%[46.1 µM],0.1%[46.1 µM]
O=C(Nc1ccc2nc(SCC(=O)N3CCc4ccccc43)sc2c1)c1ccccc1,?,8.5%,·,-4.7%,·,·,-9.2%[46.1 µM],6.3%[46.1 µM]
O=C(Nc1ccccc1Cl)c1cc(S(=O)(=O)N2CCC3(CC2)OCCO3)ccc1F,?,-12.8%&-17.8%,·,-0.2%,-17.7%,·,·,-9.8%[46.1 µM]
CCCn1c(SCC(=O)Nc2nc3ccccc3s2)nc2c1c(=O)n(C)c(=O)n2C,?,?,-3.5%,0.3%,3.5%,-1.1%,-21.6%,8.1%
COc1ccc(N2CCN(C(=O)c3oc4ccccc4c3NC(=O)c3ccccc3OC)CC2)cc1,2.6%,-13.1%,·,0.9%,·,·,·,2.2%[46.1 µM]
COc1ccc2cc(CCNC(=O)C3CC3)c(=O)[nH]c2c1,-4.6%,8.4%,5.0%,-1.0%,8.3%,-4.3%,19.5%,18.7%
CCCCCCCCCCOC(=O)Cn1c(COc2cccc(C)c2)[n+](C)c2ccccc21,·,20µM*,-6.7%,·,-10.6%,-100.8%,?,-17.2%[46.1 µM]
Cc1ccc(NC(=O)COC(=O)c2sccc2C)cc1S(=O)(=O)N1CCOCC1,-3.1%,42.3%[activator],11.8%,-1.2%,-15.5%,-2.5%,-1.1%[46.1 µM],-4.1%[46.1 µM]
NC(=O)CSc1ccc(Br)cc1,-4.8%,-14.0%,2.6%,-2.8%,13.2%,3.5%,?,0.4%
Cc1c(Cl)cccc1NC(=O)CC1Sc2ccccc2NC1=O (configuration not stated),·,5.3%,1.7%,·,22.7%,2.8%,·,·
COc1cccc(CNCc2c(C(=O)O)c(C)n(Cc3ccc(F)cc3Cl)c2C)c1OC,-6.7%,-20.1%,·,-2.8%,·,·,-13.3%[46.1 µM],-14.8%[46.1 µM]
O=[N+]([O-])c1cc(C(F)(F)F)ccc1Cl,-8.5%,-15.8%,-4.7%,10.8%,-21.8%,·,·,·
CCOc1cccc(/C=N/Nc2ccc(S(=O)(=O)N(CC)CC)cn2)c1O,-8.2%,0.0%,7.94µM*,-3.8%,25.4%,14.6%,?,?
Cn1c(=O)c2c(nc(NCCNC(=O)c3ccco3)n2Cc2ccccc2Cl)n(C)c1=O,0.4%,13.1%,-19.8%,-1.7%,-7.8%,5.5%,-13.0%&-13.0%,-23.8%
Cc1ccc(CNC(=O)c2sc3nc4n(c(=O)c3c2C)CCCCC4)cc1,-28.6%,-11.7%,·,-3.7%,·,·,·,-16.2%[46.1 µM]
CC(=O)N1CCN=C1SCc1ccc(Cl)cc1,6.3%,0.0%,5.4%,-1.7%,-15.1%,-7.7%,·,·
CN(C)CCOCCP(=O)(c1ccccc1)c1ccccc1,3.3%,12.7%,4.8%,1.0%,-1.2%,5.5%,8.9%,-0.2%
CCCOc1ccc(C(=O)Nc2cccnc2)cc1,·,56.2%[activator],-5.3%,·,-29.4%,-31.5%,·,·
C/C(=N/OC(=O)c1ccc(C)cc1)c1cccs1,2.6%,3.9%,-20.3%,-0.8%,?,-58.8%,20.4%,9.7%
CCOc1ccc(NC(=O)CC2C(=O)N(c3ccccc3)C(=O)N2C2CCCC2)cc1 (configuration not stated),18.6%,-9.4%,·,-5.0%,·,·,·,?
CSc1nc(=O)n2cccc(C)c2n1,-7.6%,-28.5%,5.3%,0.2%,10.4%,3.0%,6.6%,-4.1%
CC(C)N(Cc1ccccc1)C(=O)COC(=O)c1ccc(S(=O)(=O)N2CCOCC2)cc1,·,-15.6%,4.8%,·,5.2%,·,13.7%,7.5%
Cc1nn(-c2cc(C)c3ccccc3n2)c2c1C1C(C2)C1(C)C (configuration not stated),-18.5%,-8.9%,16.5%,-15.6%,-16.6%,1.6%,-16.1%,20.6%
COc1ccc(OC)c(Nc2ccc(Nc3cc(OC)ccc3OC)nn2)c1,-15.9%,?,-10.1%,-5.8%,-8.2%,17.2%,?,-15.3%
CCCCCCN1CC(=O)N2Cc3[nH]c4ccccc4c3C[C@H]2C1=O,·,-4.0%,0.7%,·,-8.1%,1.8%,?,-9.8%[46.1 µM]
Cc1nn(-c2ccccc2)c(-c2ccccc2[N+](=O)[O-])c1C(=O)O,·,49.9%[activator],-0.2%,·,-5.7%,5.0%,-8.8%[46.1 µM],-4.6%
CCCCn1c(SCC(=O)Nc2cc(C)on2)nnc1-c1ccncc1,·,-8.1%,1.3%,·,-0.8%,11.8%,3.9%[46.1 µM],14.3%
Cc1cccc2cc(-c3nc4c(C)cccn4c3NCc3ccco3)c(=O)[nH]c12,-3.9%,-18.8%,-1.4%,-1.4%,-11.9%,-3.8%,-21.7%,-11.5%
COC(=O)c1sccc1S(=O)(=O)N(CC(=O)NCc1ccccc1)c1ccc(C)cc1,-5.9%,48.4%[activator],·,-5.0%,·,·,·,?
Cc1ccc(C(CC(=O)NCc2ccco2)c2ccccc2)c(O)c1 (configuration not stated),-1.6%,-9.3%,4.1%,-6.4%,3.4%,6.9%,-7.9%,13.2%
CSc1ccccc1NC(=O)CN(c1cccc(C)c1)S(C)(=O)=O,-0.1%,?,2.8%,-3.0%,21.3%,-6.8%,-43.2%,-6.9%
CCOC(=O)C1=C(COC(=O)CCc2ccc(CC)cc2)NC(=O)NC1C (configuration not stated),·,-16.7%,1.2%,·,-21.7%,·,11.3%,-10.9%
Cc1ccc(NC(=O)CCNS(=O)(=O)c2ccc(Br)s2)cc1,-6.4%,16.6%&14.0%,0.3%,-7.6%,-10.7%,-1.2%,-15.9%&-8.4%[46.1 µM],?
CCCCn1c(N)c(N(CC(C)C)C(=O)COC(=O)Cc2c(C)nc3ccccc3c2C)c(=O)[nH]c1=O,·,-5.2%,-5.7%,·,-15.1%,-17.0%,?,-4.4%
Cc1cc2c(c(=O)n1Cc1ccco1)C(c1cccnc1)C(C#N)=C(N)O2 (configuration not stated),-3.5%,7.9%,10.6%,0.1%,12.2%,?,-0.2%,6.9%
CCC(OC(=O)c1ccco1)C(=O)NCc1ccco1 (configuration not stated),-8.2%,0.5%,-1.4%,3.3%,12.1%,-8.3%,-21.5%,-8.7%
CCCn1c(-c2cccs2)nc2c1c(=O)[nH]c(=O)n2Cc1ccccc1,·,-19.0%,1.6%,·,-5.8%,-0.4%,-20.1%[46.1 µM],-14.9%[46.1 µM]
O=c1[nH]ncc(N/N=C/c2ccccc2)c1Cl,0.6%,37.0%[activator],?,-4.7%,11.6%,-38.8%,15.5%,6.5%
C=CCOc1cc(OC)c(OC)c(OC)c1,·,-10.8%,0.3%,·,-10.2%,-1.9%,17.8%[46.1 µM],1.3%[46.1 µM]
Cc1c(C(=O)NC(=S)Nc2cccnc2)cccc1[N+](=O)[O-],·,-18.4%,-5.8%,·,-1.1%,-1.9%,·,·
COc1ccc(Cc2noc(CN3CCN(c4ccc(Cl)cn4)CC3)n2)cc1OC,·,12.6µM*,-1.6%,·,-4.1%,-14.9%,?,?
Cc1nc2c(C#N)cnn2c2c1CCNN2C,·,-10.1%,0.5%,·,26.2%,11.5%,-6.5%[46.1 µM],-8.1%
CCOC(=O)c1ccccc1NC(=O)c1sc2nc3n(c(=O)c2c1C)CCCCC3,27.3%,-1.4%,·,-1.4%,·,·,·,-17.0%[46.1 µM]
Cn1c(SCC(=O)c2cccs2)nnc1-c1ccco1,-19.5%,0.0%,7.8%,-2.2%,-3.7%,-78.0%,6.8%,?
COC(=O)c1cccc(NC(=O)c2onc3c2CCCC3)c1,-20.1%,50.9%[activator],-24.5%,-6.3%,?,-19.3%,9.2µM*,?
O=C(Nc1ncc([N+](=O)[O-])s1)c1ccco1,·,-24.1%,-22.4%,·,?,-105.3%,·,·
CN1[C@@H]2CC[C@H]1CC(O[C@@H](c1ccccc1)c1ccc(Cl)cc1)C2 (some centres not stated),23.4%,-21.2%,·,-1.8%,·,·,3.16µM*,·
O=C(Nc1cc(S(=O)(=O)N2CCOCC2)ccc1N1CCOCC1)c1ccc(Cl)nc1,·,-18.3%,0.4%,·,4.4%,-3.4%,0.6%,·
CN(C)S(=O)(=O)N(CC(=O)Nc1cccc(F)c1)c1ccccc1,11.2%,10.0%,21.0%,3.4%,-5.7%,15.3%,1.1%,?
O=C(Nc1nc(-c2ccccc2)ns1)c1ccc(Cl)cc1,?,5.4%,·,0.2%,·,·,·,1.8%[46.1 µM]
# New compounds follow
SMILES,Cruzain noTriton,2A StopGo,SARS PLpro yeast,Cruzain inh Det,RE007 growth inh,NS1 function inh,Marburg entry inh,Lassa entry inh
CCOC(=O)C1(c2ccccc2)CCN(CC(=O)Nc2ccc(C)cc2)CC1,·,-24.7%,-2.4%,·,0.0%,·,-22.1%,-11.0%
O=C(NCC(c1cccs1)N1CCOCC1)c1cc(-c2ccc(F)cc2)nc2ccccc12 (configuration not stated),·,-18.0%,-1.5%,·,-7.0%,·,?,·
Cc1[nH]n(-c2ccc(C(=O)O)cc2)c(=O)c1CCO,·,-3.9%,2.0%,·,7.9%,·,4.5%[46.1 µM],0.7%[46.1 µM]
NC(=O)N/N=C/c1coc2ccc(O)cc2c1=O,·,-19.2%,0.4%,·,-16.2%,0.5%,·,·
COC(=O)Nc1cc(C)nc2ccccc12,-5.3%,-5.0%,7.0%,-11.0%,-6.7%,?,3.3%,8.3%
C=CCSc1nnc(-c2ccc([N+](=O)[O-])cc2)o1,·,52.1%[activator],-1.9%,·,-10.9%,5.1%,·,·
N#Cc1cc(S(=O)(=O)c2ccc(Cl)cc2)c(N)[nH]c1=O,·,-8.2%,0.1%,·,3.0%,12.4%,·,·
C/C(=N\NC(=O)c1ccc(CSc2nncn2C)cc1)c1cccs1,·,31.7%[activator],-4.1%,·,0.8%,7.4%,?,-23.4%[46.1 µM]

# Compound activity as filed in PubChem BioAssay.
